Autofluor counter – flagged as autofluorescent in microsphere protease counterscreen. compound autofluorescence counterscreen, microsphere flow cytometry; active compounds read high. fluorescence intensity (no concentration beside the values). 3.1% of 360,000 active;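 active means at least 3 SD above the mean of all compounds, about 16000 in these data; inconclusive means too few beads counted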;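 further: 100 nL of 1 mM stock went into each well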
Sa ugtP lethal – growth inhibition of ugtP-null S. aureus, primary screen, RN4220 ugtP deletion, OD600; 16 h; some inactives read as strong as hits; 0.54% of 330,000 active; growth inhibition, % (test concentration not listed); AID 1259309, 2017;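 active means z-score under -3 and OD600 up to 0.15 on both plates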;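 further: plate controls were untreated wells for no effect and antibiotic for full effect; wells of about 80 µL received 100 nL stock; the first replicate is given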
Mtb hypoxia rep – PubChem AID 1159583; M. tuberculosis hypoxia-regulated fluorescent reporter, fluorescence; fluorescence inhibition, % (no concentration beside the values); 0.1% of 300,000 active;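 active means 35 to 45% if threefold the growth effect, above 45% if 1.5-fold the growth effect; inactive means the rest, general growth blockers included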;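 further: wells of about 50 µL received 100 nL stock; 0% = vehicle wells and 100% = reference inhibitor wells; whole bacteria with a GFP reporter of the hypoxia response; strong numbers were not always called active; many hits fall short of the cut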
PrP 5UTR inh – inhibition of PrP 5' UTR reporter expression; 0.35% of 340,000 active; inhibition, % (concentration not given with the values); cell-based PrP 5' UTR mRNA reporter, plate reader;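 active means every replicate at 50% or more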;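 further: 0 = median of the neutral control wells; tested in H4 reporter cells; numbers are from one replicate; inactives centre near -14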
BJeLR viability – MLPCN primary cell-based screen for lethality selective to Ras in HRASV12 cells; 0.17% of 300,000 active; inhibition, % (test concentration not listed); BJeLR (HRASV12) viability, CellTiter-Glo ATP luminescence, 48 h; reference of the scale not given here;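 active means replicate mean above 50%; inconclusive means above 50% but judged a plate artefact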;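 further: 50 nL library stock added to about 25 µL; numbers are from one replicate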
Sa RN4220 lethal – growth inhibition of S. aureus RN4220, primary screen, OD600 | 0.33% of 330,000 active | inhibition, % (concentration not given with the values) | 16 h | AID 1259311, 2017;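 active means z-score of -3 or lower and OD600 up to 0.18 on both plates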;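 further: plate controls were untreated cells for no effect and reference antibiotic for full effect; stock transfer was 100 nL into about 80 µL; one replicate is shown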
Mtb hypoxia rep growth – recorded beside Mtb hypoxia rep, whose call it bears; growth inhibition, %; measured here: M. tuberculosis growth (absorbance);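 0% = vehicle and 100% = reference antibiotic; read after six days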
Numbers without * were called inactive; ? = inconclusive; / = no result given. Compounds were not picked by outcome; overall some 4% were active at least once.

(1) COc1ccc(C(=O)COC(=O)c2cc([N+](=O)[O-])ccc2N2CCOCC2)c(OC)c1
(2) CCOC(=O)C1=C(C)N(CCC(=O)O)C(=O)NC1c1ccccc1Cl (stereo not drawn)
(3) COc1ccc(-c2cc(C(=O)Nc3c(C)n(C)n(-c4ccccc4)c3=O)no2)cc1
(4) CC(=O)Nc1nc(SCc2cccc3ccccc23)n[nH]1
(5) Nc1nnc(CCOc2ccc(Cl)cc2)s1
(6) N/C(=N\NC(=O)c1cccs1)c1cc2cc(Cl)ccc2oc1=O
(7) NC(=O)c1ccc(NC(=O)CN2CCN(S(=O)(=O)c3ccc4ccccc4c3)CC2)cc1
(8) COc1ccc(NC(=O)C(F)(OC)C(F)(F)F)c(OC)c1 (stereo not drawn)
(9) CCc1nnc(NC(=O)CSc2nc(C)cs2)s1
(10) C=CCCCN(Cc1ccccc1)S(=O)(=O)c1ccccc1Br

assay / entry	1	2	3	4	5	6	7	8	9	10
Autofluor counter	4549	3479	6241	8681	9324	3744	8980	11336	3234	3073
Sa ugtP lethal	/	-2	6	-5	22	-6	1	1	4	9
Mtb hypoxia rep	/	-4	-2	3	10	-4	-3	4	-3	14
Mtb hypoxia rep growth	/	6	-5	9	1	-4	-2	2	-6	4
PrP 5UTR inh	6	-24	2	-24	-19	-7	-8	3	-22	2
BJeLR viability	-11	20	8	-10	-7	-8	/	0	9	-1
Sa RN4220 lethal	/	1.1	3.4	2.3	5.3	-1.0	2.2	0.8	2.5	9.7

(11) O=C(NCCS(=O)(=O)N1CCN(c2ccccc2)CC1)C1CC(=O)N(c2ccccc2)C1 (stereo not drawn)
(12) CC1=C(C(=O)N2CCOCC2)C(c2cc(C)ccc2C)NC(=S)N1 (stereo not drawn)
(13) O=C(Nc1ccncc1)c1ccc(C(=O)Nc2ccncc2)cc1
(14) O=C(COc1ccc(Cl)cc1Cl)N/N=C/c1cccnc1
(15) O=C(N/N=C/c1cccnc1)c1ccc(NC(=O)c2cccc(Cl)c2)cc1
(16) c1ccc(Nc2c3c(nc4ccccc24)CCC3)cc1
(17) CCOC(=O)c1c(NC(=O)COC(=O)c2cnc(C)cn2)sc(C(=O)N(C)C)c1C
(18) Cc1coc2c(C)c3oc(=O)c(CCC(=O)NCc4ccccn4)c(C)c3cc12
(19) Cc1c(C(=O)Nc2nonc2-c2ccc(F)cc2)oc2ccc(F)cc12
(20) O=C1NCCN1Cc1cccc(Cl)c1

assay / entry	11	12	13	14	15	16	17	18	19	20
Autofluor counter	4199	2445	3345	5765	3950	3740	16695*	5612	4168	10821
Sa ugtP lethal	7	9	/	/	/	-2	5	-6	/	13
Mtb hypoxia rep	-3	3	/	/	/	-3	4	/	/	10
Mtb hypoxia rep growth	0	-4	/	/	/	2	-3	/	/	7
PrP 5UTR inh	-8	-36	-16	-10	-26	-11	-26	-29	-17	-22
BJeLR viability	10	0	-14	1	0	5	-8	-1	15	-6
Sa RN4220 lethal	4.5	5.7	/	/	/	1.5	2.8	2.5	/	7.4

(21) CCN(CC)c1ccc(/C=N/NC(=O)c2cccc(S(=O)(=O)N3CCOCC3)c2)c(O)c1
(22) C[N+]1(C)[C@@H]2CC[C@H]1CC(OC(=O)C(CO)c1ccccc1)C2 (stereo partly drawn)
(23) CN1C=CC=C/C1=C1/SC(=S)N(Cc2ccccc2)C1=O
(24) O=C(CCc1ccccc1)N/N=C\C1CC=CCC1 (stereo not drawn)
(25) C=CCOC(=O)C1=C[C@H](c2cn(C(C)=O)c3ccccc23)C[C@H](OCCCCO)O1
(26) CCNC(=O)NC(=O)COC(=O)CCCSc1nc2ccccc2s1
(27) O=c1c(-c2ccc(O)cc2O)coc2cc(O)cc(O)c12
(28) CCOCCCn1c(SCC(=O)Nc2cccc(S(=O)(=O)NC3=NCCCCC3)c2)nc2ccccc2c1=O
(29) CC(/C=C/c1ccccc1)=N/NC(=O)CNC(=O)c1ccccc1F
(30) CC(Cc1cccs1)NCc1ccc(Cl)cc1 (stereo not drawn)

assay / entry	21	22	23	24	25	26	27	28	29	30
Autofluor counter	5170	5870	2495	?	3542	2302	5776	4295	3563	4120
Sa ugtP lethal	/	/	1	/	/	-1	-3	-4	/	7
Mtb hypoxia rep	/	/	13	/	/	-14	/	-5	/	-11
Mtb hypoxia rep growth	/	/	-5	/	/	-9	/	1	/	5
PrP 5UTR inh	30	-4	-13	-9	3	4	-13	-7	-9	-13
BJeLR viability	54*	15	-11	4	-6	3	8	-15	3	-5
Sa RN4220 lethal	/	/	1.1	/	/	0.7	5.0	2.3	/	8.7

(31) NC(=O)C1CC2(CC(c3cccc(NC(=O)C4CCC(=O)N4)c3)=NO2)CN1C(=O)c1cc([N+](=O)[O-])cc([N+](=O)[O-])c1 (stereo not drawn)
(32) COc1ccc(C=NNC(=O)c2ccc(N(C)S(=O)(=O)c3ccccc3)cc2)cc1OC
(33) CCOC(=O)Cn1c(=O)oc2cc(S(=O)(=O)N(C)c3ccc(OC)cc3)ccc21
(34) O=c1[nH]c(SCc2ccccc2Cl)nc2c1cnn2-c1ccccc1
(35) C=CCCC(=O)N1CCC(n2nccc2NC(=O)c2ccccc2C)CC1
(36) Cc1ccc(NC(=O)c2ccc([N+](=O)[O-])o2)cc1C
(37) Cc1onc(-c2ccccc2)c1C(=O)NNC(=O)c1ccccc1
(38) Cn1c(-c2ccc3c(c2)OCO3)cnc1NCc1cccc(O)c1
(39) CN(C)CCNC(=S)Nc1ccc(-c2nc3ccccc3[nH]2)cc1
(40) CCCNC(=O)COC(=O)/C=C/c1ccc2c(c1)OCO2

assay / entry	31	32	33	34	35	36	37	38	39	40
Autofluor counter	/	/	10332	5900	5305	2018	4062	3262	4976	2272
Sa ugtP lethal	-1	-5	1	10	-2	43	-2	-7	1	4
Mtb hypoxia rep	5	1	13	9	8	6	1	-26	-6	6
Mtb hypoxia rep growth	4	13	1	5	7	32	10	-2	-5	-4
PrP 5UTR inh	/	/	-5	-3	-5	-10	-15	-20	-74	-17
BJeLR viability	/	/	-5	-4	7	-5	/	0	7	-22
Sa RN4220 lethal	4.7	2.2	4.8	19	0.4	17	12	-1.1	1.0	4.4

A portion taken from the entries so far:
(37) Cc1onc(-c2ccccc2)c1C(=O)NNC(=O)c1ccccc1
(38) Cn1c(-c2ccc3c(c2)OCO3)cnc1NCc1cccc(O)c1
(39) CN(C)CCNC(=S)Nc1ccc(-c2nc3ccccc3[nH]2)cc1
(40) CCCNC(=O)COC(=O)/C=C/c1ccc2c(c1)OCO2

assay / entry	37	38	39	40
Autofluor counter	4062	3262	4976	2272
Sa ugtP lethal	-2	-7	1	4
Mtb hypoxia rep	1	-26	-6	6
Mtb hypoxia rep growth	10	-2	-5	-4
PrP 5UTR inh	-15	-20	-74	-17
BJeLR viability	/	0	7	-22
Sa RN4220 lethal	12	-1.1	1.0	4.4

In the list so far, these have two or more sulfur atoms.
(9) CCc1nnc(NC(=O)CSc2nc(C)cs2)s1
(23) CN1C=CC=C/C1=C1/SC(=S)N(Cc2ccccc2)C1=O
(26) CCNC(=O)NC(=O)COC(=O)CCCSc1nc2ccccc2s1
(28) CCOCCCn1c(SCC(=O)Nc2cccc(S(=O)(=O)NC3=NCCCCC3)c2)nc2ccccc2c1=O

assay / entry	9	23	26	28
Autofluor counter	3234	2495	2302	4295
Sa ugtP lethal	4	1	-1	-4
Mtb hypoxia rep	-3	13	-14	-5
Mtb hypoxia rep growth	-6	-5	-9	1
PrP 5UTR inh	-22	-13	4	-7
BJeLR viability	9	-11	3	-15
Sa RN4220 lethal	2.5	1.1	0.7	2.3

Following part.
(41) CCN(CC)S(=O)(=O)c1cccc(NC(=O)COC(=O)CNC(=O)c2cccc(F)c2)c1
(42) CCOc1ccc(CCNC(=O)c2ccc(C)c(NC3=NC4CS(=O)(=O)CC4S3)c2)cc1 (stereo not drawn)
(43) NS(=O)(=O)c1ccc(N2C(=O)C3CC=CCC3C2=O)cc1 (stereo not drawn)
(44) CC(C)c1nnc(NC(=O)c2ccc3c(c2)OCO3)s1
(45) O=C(O)CCC(=O)NC(c1ccccc1)c1ccccc1
(46) C#CCSc1nc(-c2ccccc2)cc(C(F)(F)F)c1C#N
(47) CCCc1nc2ccccc2c(=O)n1/N=C/c1ccc(O)c(O)c1
(48) O=C(CCc1ccc(S(=O)(=O)N2CCOCC2)cc1)NCCCN1CCCC1=O
(49) CCOc1ccc(NC(=O)C2CCC(N3C(=O)C4CC=CCC4C3=O)CC2)cc1 (stereo not drawn)
(50) O=C(COC(=O)c1ccc(C(F)(F)F)cc1)Nc1cccc(S(=O)(=O)N2CCCCC2)c1

assay / entry	41	42	43	44	45	46	47	48	49	50
Autofluor counter	4532	6070	4117	4993	3407	3973	3153	?	3389	2993
Sa ugtP lethal	-3	13	-1	6	2	11	/	2	-1	-4
Mtb hypoxia rep	-9	2	-9	-2	3	10	/	-3	3	-4
Mtb hypoxia rep growth	3	0	4	7	12	9	/	8	-9	3
PrP 5UTR inh	-40	-23	-24	54*	-12	-11	-5	-8	-7	-30
BJeLR viability	-3	-3	6	-1	-6	-12	-1	0	4	/
Sa RN4220 lethal	-0.8	3.7	2.4	1.5	5.9	6.2	/	-0.6	2.6	-2.9

(51) O=C(NCC1CC1)C1(C(F)(F)F)CC(CCCO)CCCO1 (stereo not drawn)
(52) O=C(c1ccncc1)N1CCCC(N2CCN(c3cccc(C(F)(F)F)c3)CC2)C1 (stereo not drawn)
(53) O=S1(=O)[C@H]2CC3O[C@]2(C[C@@H]3c2ccc(F)cc2)CN1Cc1ccc(Cl)cc1
(54) C#CC1(O)C=CC2C3CCC4=CC(=O)CCC4C3CCC21CC (stereo not drawn)
(55) COc1ccc(OCC(=O)N/N=C2\CCCc3ccccc32)cc1
(56) CCc1ccccc1N(C)C(=O)CCc1nc(-c2ccc(C)cc2)no1
(57) Cc1ccccc1N=Cc1cc2c(cc1O)OC(N)=C(C#N)C2c1ccccc1 (stereo not drawn)
(58) Cc1ccc(NC(=O)[C@@H]2CCCN2S(=O)(=O)c2ccc(Cl)cc2)cc1
(59) Cc1cc(Br)ccc1N=C1C(=O)Nc2ccccc21
(60) C=CCn1c(SCC(=O)Nc2cc(C)on2)nc2sc(C)c(C)c2c1=O

assay / entry	51	52	53	54	55	56	57	58	59	60
Autofluor counter	3596	5286	4129	3644	2470	2809	2236	3918	3907	3062
Sa ugtP lethal	8	-1	/	-2	/	-10	2	3	5	/
Mtb hypoxia rep	3	-1	/	-12	/	/	13	8	16	/
Mtb hypoxia rep growth	5	7	/	4	/	/	1	0	1	/
PrP 5UTR inh	-23	0	-26	-16	-6	-16	4	-19	-11	-3
BJeLR viability	1	-7	-4	-14	7	4	5	/	1	12
Sa RN4220 lethal	7.8	1.4	/	0.5	/	7.2	15	0.2	5.3	/

(61) O=C(COC(=O)C12CC3CC(CC(O)(C3)C1)C2)Nc1ccc(Cl)cc1F
(62) C[C@@H](O)C1NC(=O)[C@H](CCCCN)NC(=O)c2cc([N+](=O)[O-])cc(I)c2NCCC[C@@H](C(N)=O)NC1=O (stereo partly drawn)
(63) Cc1ccc(C(=O)/C=C/Nc2ccccc2C(N)=O)o1
(64) CCCN(C(=O)c1cn(C)c(=O)c2ccccc12)c1ccccc1C
(65) CC1=CC(=O)C=CC1(C)C(Cl)Cl (stereo not drawn)
(66) COc1cc(C(=O)Nc2nc(OC)c(-c3ccccc3)c(OC)n2)cc(OC)c1OC
(67) COc1ccc(C)c(-n2c(N)cc(=O)n(Cc3ccccc3)c2=O)c1
(68) CC1CCC2(CC1)NC(=O)N(CC(=O)NC1CCCCC1C)C2=O (stereo not drawn)

assay / entry	61	62	63	64	65	66	67	68
Autofluor counter	3513	3782	5843	4260	2397	6250	3747	2761
Sa ugtP lethal	-5	10	-6	8	12	0	1	7
Mtb hypoxia rep	2	-11	-6	16	/	-3	6	10
Mtb hypoxia rep growth	9	-8	11	6	/	6	4	5
PrP 5UTR inh	-53	6	-114	-4	-24	-83	-18	-16
BJeLR viability	/	5	-6	-7	-3	-4	6	/
Sa RN4220 lethal	0.5	18	4.5	7.9	11	-3.2	0.3	3.0
